Cruzain Triton: blocks cruzain activity in presence of Triton detergent | purified cruzain, Z-FR-AMC fluorescence, 0.01% Triton | Potency, µM, for the others: max response, negative = inhibition, actives largely listed as inhibitors | hit rate 0.43% among 200,000;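 also: plate controls were neutral wells for no effect and buffer without enzyme for full effect; nearly all actives have a fitted effect of over 40% in size; top concentration of the series not given in the record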
Target sequence (P25779 123-467 limits assumed): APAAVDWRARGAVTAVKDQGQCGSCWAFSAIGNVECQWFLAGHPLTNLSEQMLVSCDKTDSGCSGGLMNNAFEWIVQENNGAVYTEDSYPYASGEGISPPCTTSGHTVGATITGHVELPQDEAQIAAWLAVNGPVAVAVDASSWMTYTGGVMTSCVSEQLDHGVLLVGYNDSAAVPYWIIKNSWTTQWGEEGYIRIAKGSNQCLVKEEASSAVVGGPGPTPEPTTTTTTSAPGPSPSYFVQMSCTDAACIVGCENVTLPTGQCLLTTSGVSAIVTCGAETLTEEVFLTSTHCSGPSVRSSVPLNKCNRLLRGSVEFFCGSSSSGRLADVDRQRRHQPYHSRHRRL
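In this qHTS format, compounds are incubated with 1.5 nM cruzain for 15 min at room temperature before 2 uM Z-FR-AMC is added. Release of AMC is followed at 360/450 nm, and progress is taken as the 60 s fluorescence difference.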
Cruzain noTriton: inhibitors of Trypanosoma cruzi cruzain without detergent | purified cruzain, Z-FR-AMC fluorescence, no detergent | Potency, µM, without a hit: max response, negative = inhibition, actives largely listed as inhibitors | hit rate 2.3% among 200,000;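 also: plate controls were enzyme without inhibitor for no effect and buffer without enzyme for full effect; nearly all actives have a fitted effect of over 40% in size; top concentration of the series not given in the record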
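Detergent-free condition (0.00005% Triton X-100) in acetate buffer pH 5.5 with DTT. 1.5 nM enzyme and compound were pre-mixed 15 min, then 2 uM Z-FR-AMC substrate added; reaction progress from fluorescence change between first and third reads (60 s).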
MARV entry inh: blocks Marburg virus binding to or entry into cells; Potency, µM (highest dose often 37.8 µM), for the others: at the top dose activity change, negative = inhibition, most hits filed as inhibitors; hit rate 1.8% among 300,000; Marburg virus pseudotyped entry inhibition, cell reporter; control for the full effect not named in the record; about a third of the inactives were read at about 46 µM; active = well fitted inhibition curve with a large enough effect; inconclusive = small, poorly fitted or top-dose-only effect, or effect the other way; inactive = flat fitted curve, though single readings scatter; tested in HEK293 cells; about a fifth of its hits are not listed in these tables; also: % is scaled to controls: 0 for no effect and ±100 for the full control effect; luciferase read-out
SARS PLP yeast: blocks SARS-CoV papain-like protease in a yeast assay; S. cerevisiae expressing SARS-CoV PLpro, growth rescue; control for the full effect not named in the record; Potency, µM (titrated, usually from 32.9 µM), inactives show at the highest dose activity, positive = growth rescue; hit rate 0.19% among 330,000; AID 485353; active means well fitted rising curve with a large enough effect; inconclusive means small, poorly fitted or top-dose-only effect; inactive means no such curve, though single readings can be large or run the other way; also: 0% is about no effect; nearly all actives have a fitted effect of over 55% in size; growth read by luminescence after 48 h
RE007 growth inh: less growth of the S. pombe RE007 Vpr strain; hit rate 0.21% among 360,000; S. pombe RE007 Vpr strain, BacTiter-Glo ATP luminescence, 24 h; control for the full effect not named in the record; Potency, µM (titrated, usually from 92.2 µM), inactives show top-dose activity change, negative = less growth; AID 651644; active = well fitted falling curve with a large enough effect; inconclusive = small, poorly fitted or top-dose-only effect; inactive = no such curve, though single readings can be large or run the other way;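 also: % is scaled to controls: 0 for no effect and ±100 for the full control effect; nearly all actives have a fitted effect of over 50% in size; the assay follows cell death caused by Vpr and the record does not say whether a fall means rescue or toxicity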
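Fission yeast strain RE007, carrying one chromosomally integrated HIV-1 vpr copy, was seeded at OD 0.01 in PMG+AL medium with 23 nL pinned compound. After 24 h at 30 °C and 99% humidity, viability was read by BacTiter-Glo luminescence.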
NS1 inh: influenza NS1 inhibition; S. cerevisiae slowed by influenza A NS1, growth recovery by OD600; Potency, µM (highest dose often 46.1 µM), inactives show top-dose activity, positive = more growth; hit rate 0.4% among 270,000; active means well fitted rising curve with a large enough effect; inconclusive means small, poorly fitted or top-dose-only effect; inactive means no such curve, though single readings can be large or run the other way; also: nearly all actives have a fitted effect of over 50% in size
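A cell-based growth assay was used: compounds that relieve NS1-induced slow growth of budding yeast raise OD600. Assay medium was yeast nitrogen base with ammonium sulphate and -URA supplement, pH 6.0, with 2% galactose.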
2A StopGo: lowers the luciferase signal of an FMDV 2A StopGo reporter | human cells with a luciferase reporter of 2A StopGo recoding; control for the full effect not named in the record | Potency, µM (highest dose often 57.9 µM), for the others: top-dose signal change, negative = less light | hit rate 1.2% among 410,000; active = well fitted falling curve with a large enough effect; inconclusive = small, poorly fitted or top-dose-only effect; inactive = no such curve, though single readings can be large or run the other way; tested in HEK293T cells; also: % is scaled to controls: 0 for no effect and ±100 for the full control effect; nearly all actives have a fitted effect of over 45% in size; luciferase light after 4 h
LASV entry inh: Lassa virus entry inhibition. Lassa virus pseudotype entry inhibition, cell reporter; control for the full effect not named in the record. Potency, µM (titrated, usually from 37.9 µM), for inactives: at the highest dose activity change, negative = inhibition, usual class: inhibitors. hit rate 1.2% among 300,000. AID 540256; active means well fitted inhibition curve with a large enough effect; inconclusive means small, poorly fitted or top-dose-only effect, or effect the other way; inactive means flat fitted curve, though single readings scatter; tested in HEK293 cells; also: % is scaled to controls: 0 for no effect and ±100 for the full control effect; nearly all actives have a fitted effect of over 50% in size; luciferase read-out
Active calls of the source: *; ? = inconclusive; · = not tested or not shown; & = joins results of further samples; [ ] = another dose, or the depositor's remark. Unless noted, calls follow the shape of the dose curve; as a rule, active = well fitted curve in the direction sought with a large enough effect; inconclusive = small, poorly fitted or top-dose-only effect, or another doubt; inactive = no such curve, though single readings can be large; an effect the other way counts as inactive or inconclusive. Potency is read from the fitted curve at half-maximal effect.

SMILES	Cruzain Triton	Cruzain noTriton	MARV entry inh	SARS PLP yeast	RE007 growth inh	NS1 inh	2A StopGo	LASV entry inh
CCN(CCCNC(=O)C1CCC(=O)N1C(C)C)c1cccc(C)c1 (stereo not given)	4.0%	5%	-4%	5%	-9%	10%	-18%	4%
COc1ccc(Cc2c(C)nc(N)nc2Cl)cc1	-1.2%	-6%	·	7%	12%	-2%	?	·
O=C(O)CN1C(=O)/C(=C\c2cc(Br)ccc2OCc2ccc(F)cc2)SC1=S	·	·	·	2%	-3%	8%	-25%	·
CCCCN(CC)CCNC(=O)c1nn(C)c2c1CS(=O)(=O)c1ccccc1-2	-1.6%	-1%	·	·	·	·	-6%	-12%[46.1 µM]
CC(=O)N=c1scc(-c2ccccc2)n1-c1cccc(O)c1	·	·	?	1%	-20%	27%	-11%	-26%[46.1 µM]
Cc1ccc(-c2cc(-c3ccco3)c(C#N)c(=O)[nH]2)cc1	·	·	?	-3%	-2%	6%	-6%	12%
N#Cc1ccc(-c2ccccc2)nc1Sc1ccc(F)cc1	-0.2%	-19%	6%	12%	5%	7%	-10%	-20%
CC(C)(C)N1CC(c2nc3ccccc3n2Cc2ccc(Cl)cc2)CC1=O (stereo not given)	-1.9%	8%	?	-11%	1%	-4%	-24%	3%
CCC(=O)Nc1cccc(NC(=O)COc2ccc(OC)cc2)c1	7.6%	5%	14%	3%	2%	3%	18%	?
CCC(NS(=O)(=O)c1cnn(CC)c1)c1ccccc1 (stereo not given)	·	·	-6%[46.1 µM]	0%	-10%	-47%	0%	-3%
CC(C)(O)/C=C/C(=O)C(C)(O)C1C(O)CC2(C)C3CC=C4C(C=C(O)C(=O)C4(C)C)C3(C)C(=O)CC12C (stereo not given)	·	·	0.11µM*	·	-3%	·	-5%	0.32µM*
COc1cc(/C=C/c2ccc(/C=C/c3cc(OC)c(OC)c(OC)c3)cc2)cc(OC)c1OC	·	·	?	·	7%	·	22µM*	11µM*
Cc1noc(/C=C/c2nn(C)cc2Cl)c1[N+](=O)[O-]	·	·	·	-5%	-17%	-37%	?	·
CC(C)c1ccc(NC(=O)CNCC(c2ccccc2)N(C)C)cc1 (stereo not given)	·	·	·	1%	-7%	0%	-18%	·
COc1ccccc1CNC(=O)CCn1c(=O)c2ccccc2n(CC(=O)Nc2ccc(C)cc2Cl)c1=O	-1.4%	9%	44%[46.1 µM]	·	·	·	-28%	-3%[46.1 µM]
COc1ccccc1CC(=O)Nc1ccc2c(c1)OC1(CCCC1)O2	·	·	?	2%	-16%	·	35%[activator]	-22%[46.1 µM]
CCc1ccc(NC(=O)Cn2ccn(-c3ccc(OC)cc3)c(=O)c2=O)cc1	-10%	14%	·	·	·	·	10%	7%[46.1 µM]
COc1ccc(-c2nnc(SCC(=O)Nc3cccc(C)c3)s2)cc1	0.5%	8%	·	·	·	·	-18%	18%[46.1 µM]
O=S1(=O)N=C(Oc2cccc3ccccc23)c2ccccc21	-6.5%	2%	-8%&-8%	-26%	?	9%	10%	1%
CN(C)CCCN1C(=O)C(=O)/C(=C(/O)c2ccccc2)C1c1ccccn1 (stereo not given)	7.0%	-1%	8%	9%	·	-8%	·	·
O=C(O)CCC(=O)N1CCc2cc(S(=O)(=O)NC3CCCC3)ccc21	6.5%	0%	4%	0%	-9%	2%	28%	4%
Cc1nc(N2CCN(C(=O)c3ccco3)CC2)nc2c1C(=O)CCC2	·	·	10%[46.1 µM]	-1%	16%	6%	31%[activator]	-16%[46.1 µM]
COc1cccc(N2CC(NS(=O)(=O)c3ccc(Cl)cc3)CC2=O)c1 (stereo not given)	·	·	-9%[46.1 µM]	-1%	22%	·	-8%	26%
N#Cc1ccccc1COc1ccc(/C=C/C(=O)O)cc1	·	·	?	-1%	-15%	-9%	0%	?
Cc1cccc(N2C(=O)/C(=C/c3cccnc3)SC2=S)c1	·	·	?	0%	-7%	0%	-16%	?
COc1ccc(/C(O)=C/C(=O)C(=O)NNC(=O)c2ccccc2)cc1	·	·	17%[46.1 µM]	2%	2%	-1%	12%	1%[46.1 µM]
Cc1ccc(/C=C/C(=O)O)cc1S(=O)(=O)NCC1CCCO1 (stereo not given)	·	·	1%[46.1 µM]	0%	-14%	-4%	14%	-2%
Cc1ccc(OCCSc2nc3ccc(NC(=O)c4ccco4)cc3s2)cc1	-8.5%	-2%	12%[46.1 µM]	·	·	·	2%	-11%[46.1 µM]
Cc1ccc(C(=O)Nc2nc3ccccc3c(=O)s2)cc1	1.5%	?	-21%	-17%	8%	6%	·	-21%
COc1cc(N=C2C(=O)N3c4c(cccc42)C(C)=CC3(C)C)cc(OC)c1	-5.4%	-1%	-37%	-15%	-13%	10%	-1%	?
CCOC(=O)c1ccc(CNCc2ccccc2)cc1	-0.6%	5%	36%	-6%	3%	1%	15%	?
O=C(O)c1ccc(S(=O)(=O)c2ccc([N+](=O)[O-])cc2[N+](=O)[O-])cc1	·	·	·	1%	-2%	0%	-29%	·
COc1cc(OC)cc(-c2nnc(SCc3c(F)cccc3Cl)o2)c1	-2.2%	1%	5%	?	-7%	-30%	·	-1%
CC(C)C(=O)Nc1ccc(N2CCN(C(=O)c3cccs3)CC2)cc1	1.4%	-2%	14%	2%	-5%	5%	-14%	4%
COc1ccc(C2CC(C(F)(F)F)n3nc(C(=O)NCc4cn(C)nc4C)c(Cl)c3N2)cc1 (stereo not given)	-0.9%	?	?	-12%	-8%	-12%	·	-23%
Cc1ccc(C23CC4CC(CC(C(=O)NC(C)C(N)=O)(C4)C2)C3)cc1 (stereo not given)	·	·	·	3%	0%	0%	-7%	·
O=C(CCN1C(=O)/C(=C/c2ccco2)SC1=S)Nc1ccc(O)cc1C(=O)O	·	·	14%	1%	0%	2%	3%	?
O=C(NCCCn1ccnc1)C1CCN(S(=O)(=O)c2cc([N+](=O)[O-])ccc2Cl)CC1	·	·	16%	-11%	-1%	·	?	0%[46.1 µM]
CS(=O)(=O)N(CC(=O)NCC1CCCO1)c1ccc(F)c(Cl)c1 (stereo not given)	9.1%	-2%	0%	8%	-20%	-9%	-14%	-11%
Cc1cc(Nc2cccc(Cl)c2)nc(-c2ccccc2O)n1	·	·	?	-2%	-7%	5%	?	9%[46.1 µM]
O=C(CSc1nnc(-c2cccs2)n1-c1ccccc1)N1CCCC1	6.7%	7%	-6%	-1%	15%	3%	-13%	6%
C=CCNC(=O)N1CCc2[nH]c3ccc(F)cc3c2C1	·	·	·	-1%	31%	2%	0%	·
CCc1cccc(NS(=O)(=O)c2ccc3c(c2)n(C)c(=O)c(=O)n3C)c1	-4.7%	-14%	1%[46.1 µM]	·	·	·	15%	-5%[46.1 µM]
CCOC(=O)C1CCCN(C(=O)CSCc2ccccc2)C1 (stereo not given)	2.7%	13%	18%[46.1 µM]	1%	-10%	8%	19%	-1%
Cc1c(Cl)ccc2sc(NC(=O)c3ccc(S(=O)(=O)N4CCCC4)cc3)nc12	2.1%	-1%	·	·	·	·	-12%	6%[46.1 µM]
CCOC(=O)N1CCN(Cc2nc3cc(NC(=O)c4ccc(F)cc4)ccc3n2C(C)C)CC1	-3.8%	26%	?	·	·	·	?	-25%[46.1 µM]
CC(C)CC(=O)Nc1cccc(-c2nc3ncccc3o2)c1	·	·	·	-2%	-2%	-5%	5%	·
Cc1ccc(O)c(C(=O)c2cnc3c(c2)c(=O)n(C)c(=O)n3C)c1	·	·	18%[46.1 µM]	-1%	-2%	15%	0%	12%
O=C(NCCCO)/C(=C\c1ccco1)NC(=O)c1ccc(Br)o1	-7.2%	11%	?	13%	-11%	17%	0%	5%
Cc1cccc(-n2nnnc2SC(C)C(=O)NCCC2=CCCCC2)c1 (stereo not given)	-4.1%	12%	6%[46.1 µM]	-15%	-17%	-53%	-6%	22%
COc1ccccc1NS(=O)(=O)c1ccc(NC(=O)c2ccncc2)cc1	·	·	?	-3%	0%	·	0%	-11%[46.1 µM]
CCNC(=O)COC(=O)c1sccc1C	·	·	-19%	-2%	-3%	·	11%	5%
Cc1ccc(S(=O)(=O)NC2CC3CCC2C3)cc1 (stereo not given)	·	·	0%[46.1 µM]	·	4%	·	49%[activator]	-5%
CCOC(=O)C1=C(C)NC(=O)NC1c1ccc(OCC(N)=O)cc1 (stereo not given)	0.9%	-4%	7%	-10%	2%	-5%	-22%	5%
CCc1ccc(N(C(=O)CCC(=O)Nc2cc(C)on2)C(C(=O)NC2CCCC2)c2ccco2)cc1 (stereo not given)	-6.3%	16%	?	?	3%	-7%	-17%	-25%
CN(C)c1ccc(NC(=O)CN2CCN(c3ccc(F)cc3)CC2)cc1	·	·	·	5%	-13%	-4%	-18%	·
COc1ccc(S(=O)(=O)NC(C)C(=O)NCc2ccccn2)cc1OC (stereo not given)	·	·	-18%[46.1 µM]	6%	-5%	3%	-3%	-4%
Cc1ccc(C(=O)NCC(C)NC(=O)c2ccc(C)c(C)c2)cc1C (stereo not given)	·	·	-8%[46.1 µM]	·	1%	·	5%	-17%[46.1 µM]
CN(Cc1ccccc1)C(=O)CN1C(=O)NC2(CCCCCCC2)C1=O	·	·	?	8%	13%	·	-16%	3%
CCCc1nc2nc(C)c(NS(=O)(=O)c3ccc(Cl)cc3)c(=O)n2[nH]1	·	·	0%[46.1 µM]	-2%	-1%	10%	-4%	11%
More records:
SMILES	Cruzain Triton	Cruzain noTriton	MARV entry inh	SARS PLP yeast	RE007 growth inh	NS1 inh	2A StopGo	LASV entry inh
O=C1N=C(N2CCOCC2)S/C1=C1\C(=O)N(Cc2ccccc2)c2ccccc21	-0.8%	7%	?	-2%	10%	4%	43%[activator]	4%
O=C1NC(=O)C(=Cc2ccc(OCC(=O)N3CCOCC3)cc2)C(=O)N1	-2.0%	0%	-2%	-1%	-5%	-17%	17%	5%
COc1ccc(NC(=O)CN2C(=O)CCc3cc(S(=O)(=O)N4CCOCC4)ccc32)cc1Cl	-2.1%	?	·	·	·	·	-22%	4%[46.1 µM]
Cc1ccc(C(=O)CCC(=O)Nc2ccc(C)cc2C)cc1	1.7%	16%	·	·	·	·	-4%	6%[46.1 µM]
O=C(C1COc2ccccc2O1)N(Cc1cccnc1)c1nc2ccc(F)cc2s1 (stereo not given)	-7.0%	24%	·	·	·	·	17%	?

Screening data as filed in PubChem.
